Screens from PubChem.
CtBP-E1A blk: blocks the CtBP interaction with E1A | 340,000 compounds, 0.49% hits | activity change, % (test concentration not listed) | AlphaScreen GST-E1A/His-CtBP binding, 1536-well; hits give low values; control for the full effect not named in the record; in the data active means activity change below about -65%; inconclusive means about -30% to -65%; inactive means above about -30%; further: on the % scale 0 is the no-effect control and ±100 the full control effect
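AlphaScreen with 125 nM GST-E1A and 125 nM His-CtBP (5X stocks) in Tris pH 8.0, 300 mM NaCl, BSA, Tween 20, TCEP. Compounds preincubated 2 h at 37 deg C, then glutathione donor/nickel acceptor beads added for 1 h at 37 deg C in dark.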
TRPML1 ag: agonists of human TRPML1 channel | 410,000 compounds, 0.12% hits | TRPML1-expressing cells, Ca2+ dye fluorescence, FDSS; host cell line not named in the record; reference of the full effect not given here | activation, % (no concentration beside the values) | Q9GZU1; in the data active = activation above about 50%; inconclusive = about 30% to 50%; inactive = below about 30%; further: 0% is about no effect; the text of the record puts the active cut at 80%
Target sequence (Q9GZU1 whole entry, looked up): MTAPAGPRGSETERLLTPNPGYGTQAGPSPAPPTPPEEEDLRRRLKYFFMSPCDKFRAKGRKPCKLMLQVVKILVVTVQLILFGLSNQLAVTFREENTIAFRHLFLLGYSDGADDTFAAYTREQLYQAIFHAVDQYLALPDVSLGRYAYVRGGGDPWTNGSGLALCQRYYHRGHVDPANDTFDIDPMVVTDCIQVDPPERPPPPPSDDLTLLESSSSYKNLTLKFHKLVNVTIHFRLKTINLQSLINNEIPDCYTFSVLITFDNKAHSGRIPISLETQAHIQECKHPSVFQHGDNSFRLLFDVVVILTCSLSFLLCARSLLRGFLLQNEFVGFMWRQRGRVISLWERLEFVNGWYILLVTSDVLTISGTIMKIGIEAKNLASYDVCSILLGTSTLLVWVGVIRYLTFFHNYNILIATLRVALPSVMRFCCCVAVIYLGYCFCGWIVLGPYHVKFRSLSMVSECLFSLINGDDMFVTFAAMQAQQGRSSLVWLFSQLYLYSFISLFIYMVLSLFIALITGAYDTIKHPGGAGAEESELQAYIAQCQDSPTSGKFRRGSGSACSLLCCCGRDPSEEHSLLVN
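In this qHTS format, compounds were pin-transferred onto Ca8-dye-loaded TRPML1-DL cells induced with Tet overnight, and intracellular Ca2+ fluorescence was recorded kinetically for 110 s after a 10 s baseline. A subsequent 4uM final 54-4 (EC80) addition followed by a second 110 s read served as the antagonist phase.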
D2 agonist: human D2 receptor agonism in beta-arrestin assay | P14416 | DiscoveRx PathHunter D2 beta-arrestin, luminescence, 90 min; 100% = 57 uM dopamine signal | activation, % (test concentration not listed) | 360,000 compounds, 0.084% hits | AID 624465; in the data active = activation above about 40%; inconclusive = about 15% to 40%; inactive = below about 15%; further: compound concentration not given in the record; the text of the record calls up to 30% inactive
Target sequence (P14416 whole entry, looked up): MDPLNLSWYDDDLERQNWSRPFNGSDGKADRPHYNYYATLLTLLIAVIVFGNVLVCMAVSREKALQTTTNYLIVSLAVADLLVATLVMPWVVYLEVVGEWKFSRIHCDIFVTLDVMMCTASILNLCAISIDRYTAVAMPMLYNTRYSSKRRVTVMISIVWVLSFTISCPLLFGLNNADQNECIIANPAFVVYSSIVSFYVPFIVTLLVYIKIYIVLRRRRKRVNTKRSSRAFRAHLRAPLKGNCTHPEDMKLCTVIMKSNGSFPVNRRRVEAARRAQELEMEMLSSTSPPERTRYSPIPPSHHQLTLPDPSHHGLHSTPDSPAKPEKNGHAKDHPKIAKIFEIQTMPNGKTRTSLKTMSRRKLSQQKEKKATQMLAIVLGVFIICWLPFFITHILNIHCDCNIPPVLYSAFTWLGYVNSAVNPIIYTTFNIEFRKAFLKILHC
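DiscoveRx PathHunter D2 beta-arrestin cells (2,100/well) attached overnight, then compound-stimulated 90 min at 37 C in HBSS/10 mM HEPES/0.1% Tween-20 buffer; beta-galactosidase complementation read by luminescence after 1 h at ambient temperature. Dopamine 57 uM final (EC100) as control.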
PINK1 modulator: changes PINK1 expression; Potency, µM (series often up to 76.6 µM), for inactives: top-dose activation (PINK1 increase), usual class: activators; 410,000 compounds, 0.2% hits; PINK1 immunofluorescence, high-content cytometry, 24 h; active = well fitted activation curve with a large enough effect; inconclusive = small, poorly fitted or top-dose-only effect; inactive = flat fitted curve, though single readings scatter; cell line not stated here;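 further: potency means the concentration at half of the fitted maximal effect; % of control where 0% means no effect; nearly all actives have a fitted effect of over 65% in size; a mitochondrial uncoupler was the plate control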
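A stable cell line was treated with compounds at 5 concentrations for 24 hours, with CCCP as control. PINK1 levels and mitochondrial localization were measured by immunofluorescence with mitochondrial, cell and nuclear markers after fixation, read by laser-scanning cytometry.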
Six1-Eya2 inh: Six1/Eya2 interaction inhibition; Q15475+O00167; 360,000 compounds, 0.56% hits; activity change, % (test concentration not listed); AlphaScreen GST-Six1/His-Eya2 binding, biochemical; hits give low values; control for the full effect not named in the record; in the data active = activity change below about -65%; inconclusive = about -30% to -65%; inactive = above about -30%; further: on the % scale 0 is the no-effect control and ±100 the full control effect
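GST-Six1 + His-Eya2 (5X stock: 250/500 nM); Tris pH 8.0, 300 mM NaCl, 0.05% BSA, 0.02% Tween 20; GSH donor/Ni acceptor beads; 1 h 37 °C dark; AlphaScreen readout.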
D2 potentiator: human D2 receptor positive allosteric modulation. DiscoveRx D2 beta-arrestin cells, luminescence, 90 min; 100% = 57 uM dopamine signal. P14416. potentiation, % (no concentration beside the values). AID 624464. 360,000 compounds, 0.23% hits; active = potentiation of 50% or more; inconclusive = 30% to 50%; inactive = 30% or less;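 further: compound concentration not given in the record; tested on top of an EC20 dose of dopamine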
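PathHunter D2 cells, attached overnight at 37 deg C, received compound in DMSO plus dopamine at EC20 (50 nM final) for 90 min at 37 deg C. Beta-arrestin recruitment was read as luminescence after 1 h with detection reagent at ambient temperature.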
Starred values were filed as active, the others as inactive; ? = inconclusive; · = not tested or not shown; & = joins results of further samples; [ ] = another dose, or the depositor's remark.

Each structure is followed by: CtBP-E1A blk, TRPML1 ag, D2 agonist, PINK1 modulator, Six1-Eya2 inh, D2 potentiator
> Cc1c(Cl)cccc1N(CC(=O)NC(C)c1ccccc1)S(C)(=O)=O (stereo unspecified)
→ -5, 0.3, -2.8, 2.0%, -9, -8
> C#CCN(C[C@H]1[C@H](OC(=O)NCc2ccco2)[C@H](OC(=O)NCc2ccco2)C[C@@H](C(=O)OC)[C@H]1C(=O)OC)S(=O)(=O)c1ccc(C)cc1
→ ?, 0.5, -11, 4.2%, ?, -6
> O=C(COc1ccc2c3c(c(=O)oc2c1)CCCC3)NCc1ccccn1
→ -5, -0.7, -1.8, -0.5%, 0, -5
> Oc1ccc(NCc2cccc(OCc3ccccc3)c2)cc1
→ ·, 2.6, -5.2, 1.0%, -20, 16
> CCC(=O)Nc1ccccc1-c1nc2ccccc2[nH]c1=O
→ -1, -0.6, -3.4, 0.5%, -16, -2
> COc1ccc(C2=NN(C(=O)c3ccccc3)C(c3ccc(OC)c(OC)c3)C2)c(O)c1 (stereo unspecified)
→ -8, -0.9, -3.6, -1.8%, -14, 1
> CC(C(=O)N1c2ccccc2Sc2ccccc21)n1nnc(-c2cccs2)n1 (stereo unspecified)
→ 9, -0.1, -3.1, ·, -1, 3
> CC(C)C(OC(=O)c1cc2sccc2n1C)C(=O)NCC1CCCO1 (stereo unspecified)
→ 2, 0.0, 2.0, -4.3%[38.3 µM], 2, -16
> O=C(N/C(=C/c1ccco1)C(=O)N1CCOCC1)c1cccs1
→ -12, 0.2, -3.3, 0.4%, -3, -22
> CC1(C)CC(=O)C=C(NNC(=O)OC(C)(C)C)C1
→ 9, -0.8, 3.3, 1.2%, 16, 1

Each structure is followed by: CtBP-E1A blk, TRPML1 ag, D2 agonist, PINK1 modulator, Six1-Eya2 inh, D2 potentiator
> CSc1cccc(NC(=O)C2C3C=CC4(O3)C2C(=O)N(CCCN2CCOCC2)C4C(=O)NC2CCCCC2)c1 (stereo unspecified)
→ -2, -0.1, -1.8, 2.5%, 4, -8
> Cc1ccc(Cl)cc1N1CCN(S(=O)(=O)c2cc3c(cc2C)NC(=O)CO3)CC1
→ 1, 1.3, 2.2, 11%, 0, 1
> CN1C[C@@H]2[C@@H]3C(=O)N(C)C(=O)[C@@H]3[C@](C)(C1=O)N2C(=O)c1ccc(Br)cc1
→ 5, -0.5, -1.4, 0.3%, 1, 1
> COc1ccc(-n2c(=O)cc(N3CC(C)OC(C)C3)[nH]c2=O)cc1 (stereo unspecified)
→ 1, -0.4, -3.6, 0.8%, -3, -16
> O=C(NC1CCCCCC1)c1c(O)nc2sccn2c1=O
→ 9, 0.3, -2.5, 1.4%, 1, 21
> CCC1CCCCN1C(=S)Nc1cccc(S(=O)(=O)N(C)C)c1 (stereo unspecified)
→ 0, -0.6, -3.7, 0.8%, -3, -5
> COc1ccccc1NC(=O)NNC(=O)CN1C(=O)COc2ccccc21
→ 4, -0.1, -5.2, -0.2%, 6, 6
> O=c1c2ccccc2nnn1-c1ccccc1
→ 12, 0.5, -5.6, -0.4%, 1, -15
> Nc1cc(C(=O)O)ccc1Sc1ccccc1C(=O)O
→ ·, 0.3, 0.5, -2.2%, 0, -5
> O=C(C1CCC(=O)N(C2CCCC2)C1)N1CCN(c2ccccc2Cl)CC1 (stereo unspecified)
→ -6, 0.2, 2.0, -0.8%, 6, -19

Each structure is followed by: CtBP-E1A blk, TRPML1 ag, D2 agonist, PINK1 modulator, Six1-Eya2 inh, D2 potentiator
> OCCCNc1ncnc2sc3c(c12)CCN(Cc1ccccc1)C3
→ ·, 1.0, -5.4, 5.2%, -14, -4
> NS(=O)(=O)c1cc2c(cc1Cl)NCNS2(=O)=O
→ 4, -0.5&-0.2, 5.5, -0.3%&-0.5%, 3, -3
> CCc1nnc(NC(=O)CSc2nccn2-c2cccc(C)c2)s1
→ -1, 0.1, -2.6, -0.3%, 1, -6
> COCCCNc1ncnc2sc3c(c12)CCC(C)C3 (stereo unspecified)
→ -4, 1.0, -1.7, -1.7%, -2, -1
> O=C(CSc1nnc(Cc2ccc(Cl)cc2)o1)Nc1ccccc1
→ ·, 0.6, -1.7, -0.3%, 13, -11
> CCN(CCCC(=O)c1ccc(F)cc1)CCc1ccccc1
→ 0, -0.5, 13, -0.2%, 13, -24
> OCCCn1c(C2CCCN2c2nc(-c3ccc(F)cc3)cs2)nc2cc(C(F)(F)F)ccc21 (stereo unspecified)
→ 4, -0.1, 1.1, 2.7%, -1, -10
> Cc1cc(OC(C)C(N)=O)nc(-c2ccccc2)n1 (stereo unspecified)
→ 51, 3.7, 3.1, 0.7%, 25, 1
> COc1ccc(C2CC(=O)C(C=NCCN3CCN(C(=S)Nc4ccccc4)CC3)=C(O)C2)cc1 (stereo unspecified)
→ 0, 0.9, -2.4, -1.5%, 16, 0
> CC1CCCCC12NC(=O)N(CC(=O)Nc1cccnc1Cl)C2=O (stereo unspecified)
→ 3, 0.7, -5.0, 0.2%, -2, -6

Each structure is followed by: CtBP-E1A blk, TRPML1 ag, D2 agonist, PINK1 modulator, Six1-Eya2 inh, D2 potentiator
> CCOC(=O)N1CCC(NC(=O)c2ccc(CS(=O)(=O)c3ccc(OC)cc3)o2)CC1
→ 0, 1.9, -2.1, 1.2%, 4, -4
> COc1cccc(NC(=O)Nc2ccccc2SC)c1
→ 7, 6.3, -4.2, 2.4%, -4, -6
> CCCCn1c(N)c(N(CCOC)C(=O)CCN2C(=O)C3CC=CCC3C2=O)c(=O)[nH]c1=O (stereo unspecified)
→ 4, -0.5, -2.0, -1.3%, 10, -1
> CN(C)CCCNC(=O)/C(=C/c1ccc(-c2ccc([N+](=O)[O-])cc2)o1)NC(=O)c1ccccc1
→ -9, 9.4, -5.0, 4.6%, 14, -17
> O=C(Nc1nnc(C2CC2)s1)c1ccc(Cl)nc1
→ 10, -0.2, -1.5, 0.8%, 0, -3
> COc1ccccc1N1CCN(S(=O)(=O)c2ccc(Cl)s2)CC1
→ 19, 0.0, -0.9, -2.4%[38.3 µM], 1, -8
> Cc1ccc(-n2nc(C(=O)N3CCOCC3)cc2-c2ccc(Cl)cc2)cc1
→ 9, 1.0, 0.2, 0.3%, -1, -11
> Cc1ccc2ncnc(Nc3ccc(C)c(C)c3)c2c1
→ 2, 1.1, -0.8, 1.6%[38.3 µM], -2, -8
> COc1ccccc1/C=C/c1nc2ccccc2c(=O)o1
→ -4, 0.4, 4.5, 3.1%, -2, 8
> CCc1ccc(N(CC(=O)NC)S(C)(=O)=O)cc1
→ 10, 0.5, -5.5, -0.3%, 5, -9

Each structure is followed by: CtBP-E1A blk, TRPML1 ag, D2 agonist, PINK1 modulator, Six1-Eya2 inh, D2 potentiator
> CC(C)Oc1ccc(C2CC(=O)N(c3cccc(C(=O)O)c3)C2=O)cc1 (stereo unspecified)
→ -5, 0.3, -0.8, -2.7%, 4, 0
> CCOCCn1c(N2CCN(c3ccccc3)CC2)nc2c1c(=O)n(C)c(=O)n2C
→ 4, -0.7, -3.7, 0.6%, -3, -6
> CS(=O)(=O)N(CC(=O)N1CCOCC1)c1ccccc1
→ 1, 0.4, -2.2, 0.3%, 6, 0
> CCN(c1ccccc1)S(=O)(=O)c1nnc(NC(=O)C(C)C)s1
→ -12, -0.8, 1.1, -1.1%, 8, -9
> CCCc1cc(C(=O)Nc2ccc(Cl)cn2)cs1
→ 33, 2.6, -2.4, 0.5%, 32, -25
> Cc1ccccc1CN1CCN(C(=O)[C@H]2O[C@@H](n3ccc(=O)[nH]c3=O)[C@H](O)[C@@H]2O)CC1
→ 1, -0.2, -3.0, 0.2%, -5, -4
> COc1ccc(OC)c(NC(=O)CSc2nnc(C)n2Cc2ccccc2)c1
→ 5, -0.7, -0.2, 1.4%[38.3 µM], 3, -10
> COc1cccc(C(c2sc3ncnn3c2O)N2CCc3ccccc3C2)c1 (stereo unspecified)
→ 0, -0.8, -2.4, -0.5%, 0, -4
> Cc1cc(C)nc(NS(=O)(=O)c2ccc(NC(=S)NC(=O)C(C)C)cc2)n1
→ 2, 0.9, -3.3, -0.4%, 4, -14
> O=CN1CC(=O)N(c2ccccc2)c2c([nH]c3ccccc23)C1
→ 6, -1.0, -5.3, -2.6%, -1, -4

Each structure is followed by: CtBP-E1A blk, TRPML1 ag, D2 agonist, PINK1 modulator, Six1-Eya2 inh, D2 potentiator
> COc1cccc(N=CC2=C(O)CCCC2=O)c1
→ 1, 0.3, 1.5, 0.9%, 1, -2
> COc1ccccc1NS(=O)(=O)c1ccc(C(=O)N2CC(C)OC(C)C2)cc1 (stereo unspecified)
→ 0, 0.3, -3.6, 0.3%, 6, -5
> COC(=O)[C@]12CCCCC=C1N(Cc1ccccc1)C(=O)[C@H](CC(=O)NCc1ccccc1)C2
→ -13, -0.4, ·, -0.6%, 4, ·
> Cc1cc(=O)[nH]c(SCc2cc(Cl)ccc2OC(F)F)n1
→ -3, 1.8, 0.1, 0.1%, 6, 0
> CCC1CCC(N2CCN(c3ccc(F)cc3)CC2)CC1 (stereo unspecified)
→ -12, -0.1, 0.7, 5.6%, -17, -4
> COc1cc(S(=O)(=O)N2CCN(C)CC2)c(OC)cc1Br
→ -2, -0.4, -1.6, -0.7%, -13, -33
> CCCCn1nnnc1-c1nc2ccccc2[nH]c1=O
→ -14, -1.1, ·, -0.7%, -10, ·
> FC(F)(F)c1cccc(N2CCN(Cc3cccnc3)CC2)c1
→ 0, 0.6, 1.2, -1.1%, -1, -34
> CCCCOCCCNC(=O)/C=C/c1ccccc1Cl
→ 6, -0.3, -0.8, 20%, 5, -34
> CCN1CCN(C(=O)CCN2C(=O)c3ccccc3C2=O)CC1
→ 1, 0.3, 3.4, 2.1%, 2, -5

Structural class, the compounds so far containing a thiophene ring, fused or not (7)
Each structure is followed by: CtBP-E1A blk, TRPML1 ag, D2 agonist, PINK1 modulator, Six1-Eya2 inh, D2 potentiator
> CC(C(=O)N1c2ccccc2Sc2ccccc21)n1nnc(-c2cccs2)n1 (stereo unspecified)
→ 9, -0.1, -3.1, ·, -1, 3
> CC(C)C(OC(=O)c1cc2sccc2n1C)C(=O)NCC1CCCO1 (stereo unspecified)
→ 2, 0.0, 2.0, -4.3%[38.3 µM], 2, -16
> O=C(N/C(=C/c1ccco1)C(=O)N1CCOCC1)c1cccs1
→ -12, 0.2, -3.3, 0.4%, -3, -22
> OCCCNc1ncnc2sc3c(c12)CCN(Cc1ccccc1)C3
→ ·, 1.0, -5.4, 5.2%, -14, -4
> COCCCNc1ncnc2sc3c(c12)CCC(C)C3 (stereo unspecified)
→ -4, 1.0, -1.7, -1.7%, -2, -1
> COc1ccccc1N1CCN(S(=O)(=O)c2ccc(Cl)s2)CC1
→ 19, 0.0, -0.9, -2.4%[38.3 µM], 1, -8
> CCCc1cc(C(=O)Nc2ccc(Cl)cn2)cs1
→ 33, 2.6, -2.4, 0.5%, 32, -25
